# Screening results from PubChem BioAssay.
# RGS16-Gao HTS = modulators of RGS16 binding to Galphao, primary screen, biochemical, human proteins, multiplexed bead flow cytometry; Regulator of G-protein signaling 16 (Homo sapiens) + Guanine nucleotide-binding protein …; bead-based flow cytometry RGS16-Galphao binding, fluorescence; actives lie on both sides; binding response (% of control), % at 10 µM; actives 0.38% (n = 220,000); AID 1441, 2008;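 active = below 25% or above 175%, edge rows of some plates excepted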;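 also: Galphao activated by GDP with aluminum fluoride before binding; 100% = wells without compound and 0% = beads without RGS; some results beyond the cut were filed as inactive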
# PKD1 kinase inh = inhibitors of human PKD1 kinase, biochemical, fluorescence polarization | Serine/threonine-protein kinase D1 (Homo sapiens), Q15139 | PKD1 kinase fluorescence polarization assay | inhibition, %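 (about 10 µM by stock and volumes)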 | actives 0.056% (n = 200,000);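 active = inhibition of 50% or more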;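 also: controls were vehicle for no effect and a reference inhibitor for full effect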
# Target sequence (Q15139 whole entry, looked up): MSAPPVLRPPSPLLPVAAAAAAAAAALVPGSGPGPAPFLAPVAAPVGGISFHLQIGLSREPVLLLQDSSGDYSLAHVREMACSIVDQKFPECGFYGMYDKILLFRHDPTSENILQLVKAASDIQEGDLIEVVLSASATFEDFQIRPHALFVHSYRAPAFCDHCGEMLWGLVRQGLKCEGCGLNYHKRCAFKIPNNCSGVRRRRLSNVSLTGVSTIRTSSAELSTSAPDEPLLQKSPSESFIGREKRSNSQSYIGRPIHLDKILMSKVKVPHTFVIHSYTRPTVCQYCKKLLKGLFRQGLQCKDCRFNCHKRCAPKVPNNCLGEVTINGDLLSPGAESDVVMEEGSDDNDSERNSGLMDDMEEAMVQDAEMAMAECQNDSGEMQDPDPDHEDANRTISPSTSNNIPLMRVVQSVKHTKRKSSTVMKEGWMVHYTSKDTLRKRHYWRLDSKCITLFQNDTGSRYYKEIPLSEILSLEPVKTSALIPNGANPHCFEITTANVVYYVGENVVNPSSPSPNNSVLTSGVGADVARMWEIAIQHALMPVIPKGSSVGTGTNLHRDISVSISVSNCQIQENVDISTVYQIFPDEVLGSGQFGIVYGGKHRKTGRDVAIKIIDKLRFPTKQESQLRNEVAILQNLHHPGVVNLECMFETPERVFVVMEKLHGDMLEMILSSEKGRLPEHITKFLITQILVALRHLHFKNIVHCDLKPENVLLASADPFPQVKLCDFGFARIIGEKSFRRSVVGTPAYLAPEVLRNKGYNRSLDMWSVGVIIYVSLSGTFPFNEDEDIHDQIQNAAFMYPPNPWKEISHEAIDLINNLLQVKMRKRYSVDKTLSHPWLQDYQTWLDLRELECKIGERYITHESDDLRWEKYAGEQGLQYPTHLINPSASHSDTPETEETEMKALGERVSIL
# GALR2 agonist = GALR2 receptor agonists, primary screen, cell-based; GALR2-expressing cells, agonist activation read-out; activation, %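 (tested at 5 µM)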; actives 0.48% (n = 140,000);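 active = above mean plus 3 SD of all compounds, about 5% in these data, not always enough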;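 also: 0% = vehicle buffer wells and 100% = reference agonist at full effect; tested in CHO reporter cells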
# INS promoter inh = inhibitors of insulin promoter-driven GFP, primary screen, imaging, TRM-6 cells (human fetal islet line), eGFP reporter, cell count. inhibition, % at 2 µM. actives 0.9% (n = 130,000). reporter expression induced with tamoxifen;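 active = inhibition above the mean plus 3 SD, with well images judged a real hit on visual review, cut at about 60% in these data, passing the limit was not always enough; inconclusive = inhibition over the cutoff but images rejected on review; inactive = inhibition not above the cutoff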
# HSV replic up = enhancers of HSV replication in host cells, fold increase, host cell viability. HSV replication augmentation in cells. maximum fold increase. actives 0.005% (n = 220,000). AID 1956, 2009;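 active = peak rise of 1.5-fold or more in the series; inconclusive = self-fluorescent or not available for retest; tested in PC3 cells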;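 also: first round at 10 µM; read as green reporter fluorescence; hits show the peak of a series up to 25 µM; 1 = signal of infected wells without compound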
# INS promoter inh cell count = also measured in INS promoter inh; calls as there; normalized cell count, %; measured here: cell count, toxicity; reference of the scale not given here;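 cells exposed to compound for 48 h; stained nuclei by imaging scaled within each plate; lower means fewer cells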
# HSV replic up primary fold = recorded beside HSV replic up, whose call it bears; fold increase; compound at 10 µM; measured here: primary screen fold increase 10 uM; tested in PC3 cells;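 GFP signal in the first replicate; 1 = infected wells without compound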
# * hit, by the source's call; i = inactive; ? = inconclusive; nt = no result given.
SMILES,RGS16-Gao HTS,PKD1 kinase inh,GALR2 agonist,INS promoter inh,INS promoter inh cell count,HSV replic up,HSV replic up primary fold
Cc1ccc(NC(=O)CCC(=O)c2cccs2)cc1,94,1,-1.1,-33,134,i,0.79
NC(=O)Cn1c(-c2nonc2N)nc2ccccc21,60,16,nt,43,67,i,1
CCOC(=O)c1cc(NC(=O)N2CCCCC2)c(C)nc1C,104,-1,-0.9,56,150,i,0.85
COC(=O)Nc1ccc(S(=O)(=O)N2CCCC(C(=O)N3CCOCC3)C2)cc1 (configuration not stated),103,nt,nt,nt,nt,i,0.94
COc1cc(/C=C2\SC(=S)N(C(C(=O)O)c3ccccc3)C2=O)cc(OC)c1OC (configuration not stated),102,nt,nt,nt,nt,i,1.1
O=C(NCC1CCCCC1)C1CCCN(C(=O)NC2CCCCC2)C1 (configuration not stated),100,-8,-1.4,nt,nt,i,0.63
CC(C)CC(=O)Nc1nnc(SCC(=O)NCc2ccco2)s1,102,-1,-0.8,nt,nt,i,1.2
Cc1cccc2c(=O)cc(C)n(Cc3ccccc3)c12,42,-12,0.8,-19,145,i,0.95
CC(=O)Nc1ccc(S(=O)(=O)N2CCN(c3cc(C)nc4ccccc34)CC2)cc1,108,-4,-0.6,21,59,i,0.89
C=CCN1C(=O)C2C3C=CC(C2C1=O)C1C2C(=O)N(CC=C)C(=O)C2C31 (configuration not stated),102,11,nt,nt,nt,i,1.1
COc1ccc(/C(C)=N/NC(=O)C2CC2)cc1,89,-2,nt,nt,nt,i,1
CCOC(=O)C1CCCN(Cc2nc3ccc([N+](=O)[O-])cc3c(=O)n2-c2ccc(OC)cc2OC)C1 (configuration not stated),97,-4,nt,nt,nt,i,0.93
CCC(=O)Nc1ccc(NC(=O)c2cccc(OC)c2)nc1,105,-6,1.0,24,115,i,1
CSCCC(NC(=O)c1cccc(S(=O)(=O)N2CCOCC2)c1)C(=O)Nc1ccc(F)cc1 (configuration not stated),128,-13,-1.2,3,72,i,1
CC(C)CC(=O)Nc1nnc(SCC(=O)NCc2ccc3c(c2)OCO3)s1,100,-3,nt,9,125,i,1
CNC(=O)N(O)C1N(C)C(=O)N(CC(=O)OC)C1(C)C (configuration not stated),100,-11,-1.4,6,62,i,0.88
O=C(COC(=O)CSc1ccc2ccccc2c1)Nc1ccccc1OC(F)F,98,-3,-1.2,nt,nt,i,1
COc1ccccc1CNC(=O)CSc1ccsc1[N+](=O)[O-],108,-2,nt,-50,121,i,0.95
COc1ccc(C(=O)NCCNC(C)=O)cc1S(=O)(=O)NCc1ccc(Cl)cc1,93,3,-1.7,nt,nt,i,0.75
CC(C)(C)CC(C)(C)NC(=O)Nc1cccc([N+](=O)[O-])c1,111,1,nt,nt,nt,i,0.91
CCCS(=O)(=O)N1CCCC(C(=O)NCCCN(Cc2ccccc2)C(C)C)C1 (configuration not stated),97,-19,-0.6,nt,nt,nt,nt
COc1ccc(/C=C/C(=O)NCc2cn(C)nc2C)cc1COc1ccc(Cl)cc1Br,97,5,4.8,-24,107,i,0.88
Cc1ccc2cc(CN(c3ccc(C)c(C)c3)S(C)(=O)=O)c(=O)[nH]c2c1,104,1,nt,nt,nt,i,0.87
COc1ccc(CCn2cnc3c([nH]c4ccccc43)c2=O)cc1,97,nt,nt,nt,nt,i,1.2
COc1ccccc1NC(=O)NCC(c1ccco1)N1CCCCC1 (configuration not stated),103,1,nt,-41,106,i,1

# (list continues)
SMILES,RGS16-Gao HTS,PKD1 kinase inh,GALR2 agonist,INS promoter inh,INS promoter inh cell count,HSV replic up,HSV replic up primary fold
Cn1c[n+](C)cc1-c1ccc(/C(N)=N/O)cc1,145,1,-1.0,nt,nt,i,1.1
CCN(Cc1ccccc1)C(=O)c1cc2c(=O)oc3ccc(C)cc3c2s1,97,-6,-1.5,nt,nt,i,1.1
CCOc1ccsc1C(=O)O,102,nt,nt,nt,nt,i,0.96
COc1cccc(NC(=O)CSc2nc3c(sc4ccccc43)c(=O)n2CCN(C)C)c1,99,-10,nt,nt,nt,i,0.95
O=S(=O)(c1cc(Cl)ccc1Cl)N1CC2CCCN2c2ccc(C(F)(F)F)cc21 (configuration not stated),103,-10,0.3,-50,79,i,0.95
Cc1onc(-c2ccccc2)c1C(=O)NCc1ccc2c(c1)OCO2,99,-6,-1.1,nt,nt,i,0.89
COC(=O)C1C2C=CC3(CN(Cc4ccco4)C(=O)C13)O2 (configuration not stated),94,-3,-0.5,59,67,i,1
COc1ccc(C(=O)NC(=S)Nc2ccccc2N2CCOCC2)cc1Br,107,-13,1.0,2,94,i,0.76
C=CCN(c1ccc(C(=O)OC)cc1)S(=O)(=O)c1ccccc1,102,7,nt,-36,113,i,0.84
COc1cccc(C(=O)NC(=S)Nc2ccccc2N2CCCC2)c1,107,-10,nt,-43,123,i,1.1
CC(=O)C(Cc1ccc(Cl)nc1)Cc1ccc(Cl)nc1,105,7,nt,nt,nt,i,1.1
O=C1CC(SC2=NCCS2)C(=O)N1c1cccc(Cl)c1Cl (configuration not stated),104,4,nt,-20,98,i,1.1
COc1ccc(CCNC(=O)Cn2c(=O)n(CCCC(=O)NCc3ccco3)c(=O)c3sccc32)cc1OC,104,5,nt,nt,nt,i,1.1
COc1ccc(OC)c(NC(=S)NCc2cccnc2)c1,104,-1,0.0,-7,120,i,0.96
CCC(/C=N/Nc1ccc(S(=O)(=O)N2CCCC2)cc1[N+](=O)[O-])CC,111,0,0.8,13,117,i,1
Cc1[nH]c(=S)c(C#N)c(C)c1CCC#N,94,nt,nt,nt,nt,i,0.94
O=C(COC(=O)C1CC2C=CC1C2)Nc1cccc(S(=O)(=O)N2CCCCCC2)c1 (configuration not stated),108,-15,-1.3,-15,66,i,1
Cc1cccc(NC(=S)N/N=C2\CC(C)(C)Oc3ccc(O)cc32)c1,110,3,-1.0,nt,nt,i,0.92
O=S(=O)(/N=C(/c1ccccc1)N1CCCCC1)c1ccccc1,90,-11,-0.6,-87,70,i,0.96
Cc1ccccc1NC(=O)CCC(=O)N/N=C/c1ccc(F)cc1,102,7,nt,nt,nt,i,0.91
O=C(CCCn1cc([N+](=O)[O-])cn1)NC1CCCCCC1,89,-2,nt,-4,43,i,0.93
CCc1ccc(-c2nn(-c3cc(Cl)ccc3[N+](=O)[O-])c(=O)c3ccccc23)cc1,87,5,-1.1,-54,95,i,0.96
CCNc1nnc(-c2ccncc2)s1,95,10,-1.3,-28,60,i,0.83
CC1CCCN(S(=O)(=O)c2coc(C(N)=O)c2)C1 (configuration not stated),103,-21,-2.2,nt,nt,i,1.1
N#C/C(=C\c1ccc(OC(=O)c2ccc(Br)s2)cc1)c1nc2ccccc2[nH]1,104,6,-0.7,-9,106,?,nt

# Continuation:
SMILES,RGS16-Gao HTS,PKD1 kinase inh,GALR2 agonist,INS promoter inh,INS promoter inh cell count,HSV replic up,HSV replic up primary fold
COCCCN(CC(=O)O)S(=O)(=O)c1cccc(Cl)c1,100,1,nt,nt,nt,i,0.96
COc1ccc(Cl)cc1NC(=S)Nc1ccccc1F,102,2,nt,10,167,i,1.1
Cc1ccc(C(=O)N/N=C\c2cccn2C)cn1,85,-10,-1.6,-33,110,i,0.91
CC(NC(=O)Nc1ncccn1)(C(F)(F)F)C(F)(F)F,105,0,0.0,23,84,i,0.91
Cc1cc(C)c2c(=O)[nH]c(SCc3ccccc3)nc2n1,99,-5,nt,nt,nt,i,0.93
Cc1ccnc(NC(=O)CCC(=O)N(CC(=O)NCc2ccccc2)Cc2cccs2)c1,110,-5,nt,-139,44,i,0.97
CCCn1c(SCC(=O)N2CC(=O)Nc3ccccc32)nc2ccccc21,117,-4,-0.6,nt,nt,i,0.95
O=C(NC1CC1)C1CCCN(C(=O)NC2CCCCC2)C1 (configuration not stated),103,3,nt,nt,nt,i,0.96
COc1c(C)cc(Br)cc1C(=O)Nc1cccc(NC(=O)c2ccco2)c1,102,-12,0.3,-32,69,i,0.73
COC(=O)c1c(NC(=O)c2ccc(N(C)S(=O)(=O)c3ccc(C)cc3)cc2)sc2c1CCCC2,47,3,-0.1,13,126,i,1
CCOC(=O)C1(C)NC(c2ccc(OC)cc2OC)C2C(=O)N(c3cccc(OC)c3)C(=O)C21 (configuration not stated),102,-10,-2.9,nt,nt,i,0.8
C=CCOC(=O)C1=C(C)Nc2nnnn2C1c1cccc(OC)c1OC (configuration not stated),100,-10,-2.5,7,132,i,0.88
O=C1C2C3C=CC(C2C(=O)N1c1ccc(O)cc1)C1C2C(=O)N(c4ccc(O)cc4)C(=O)C2C31 (configuration not stated),84,nt,nt,nt,nt,i,0.86
Cc1c(C)[n+](=O)c(-c2ccco2)c(C)n1[O-],112,7,-0.8,nt,nt,i,0.84
O=S(=O)(c1cccc2c(S(=O)(=O)N3CCCC3)cccc12)N1CCCC1,94,-8,-2.8,16,160,i,0.82
O=C(c1ccc2c(c1)OCCO2)C1CCN(S(=O)(=O)c2cccc(F)c2)CC1,102,0,-0.3,nt,nt,i,0.83
CC(=O)C(=Nc1ccc(Cl)cc1Cl)NNc1cccc(Cl)c1,106,1,-1.8,23,112,i,1
CC1CCCCN1C(=O)c1ccc(OC2CCN(S(=O)(=O)N(C)C)CC2)cc1 (configuration not stated),105,-8,nt,nt,nt,i,0.9
Cc1cc(NC(=O)CSc2ccc3nnc(-c4ccccn4)n3n2)no1,95,-16,-4.1,nt,nt,i,0.95
O=C(COC(=O)c1ccc([N+](=O)[O-])o1)Nc1cccc(S(=O)(=O)N2CCCCC2)c1,100,-9,nt,nt,nt,i,0.89
CCC(C)c1ccc(O)c(NC(=S)NC(=O)c2cccnc2)c1 (configuration not stated),102,2,nt,nt,nt,i,1.1
COc1ccc(OC)c(NC(=O)CSc2ncnc3c2cnn3-c2ccccc2Cl)c1,100,-1,-0.6,-210,114,i,0.94
COC(=O)[C@@H](NC(=O)Nc1cccc(Br)c1)C(C)C,103,-2,0.5,13,93,i,0.99
COc1ccc(C=O)cc1CSc1ccccn1,93,nt,nt,nt,nt,i,0.94
CC(=O)Nc1ccc(NC(=O)Cn2nc([N+](=O)[O-])c(Br)c2C)cc1,46,8,nt,50,87,i,0.95

# Arranged by the number under HSV replic up primary fold (lowest first): three from the list above
Structure	RGS16-Gao HTS	PKD1 kinase inh	GALR2 agonist	HSV replic up primary fold
Cc1ccnc(NC(=O)CCC(=O)N(CC(=O)NCc2ccccc2)Cc2cccs2)c1	110	-5	nt	0.97
CCC(/C=N/Nc1ccc(S(=O)(=O)N2CCCC2)cc1[N+](=O)[O-])CC	111	0	0.8	1
COc1cc(/C=C2\SC(=S)N(C(C(=O)O)c3ccccc3)C2=O)cc(OC)c1OC (configuration not stated)	102	nt	nt	1.1

# An excerpt of these results, as tab-separated lines.
molecule	RGS16-Gao HTS	PKD1 kinase inh	GALR2 agonist	INS promoter inh	INS promoter inh cell count	HSV replic up	HSV replic up primary fold
Cc1c(C)[n+](=O)c(-c2ccco2)c(C)n1[O-]	112	7	-0.8	nt	nt	i	0.84
O=C(COC(=O)c1ccc([N+](=O)[O-])o1)Nc1cccc(S(=O)(=O)N2CCCCC2)c1	100	-9	nt	nt	nt	i	0.89
CCCn1c(SCC(=O)N2CC(=O)Nc3ccccc32)nc2ccccc21	117	-4	-0.6	nt	nt	i	0.95
COC(=O)[C@@H](NC(=O)Nc1cccc(Br)c1)C(C)C	103	-2	0.5	13	93	i	0.99
COc1ccc(Cl)cc1NC(=S)Nc1ccccc1F	102	2	nt	10	167	i	1.1

# Returning to the listing with the 2 entries that preceded the break.
SMILES,RGS16-Gao HTS,PKD1 kinase inh,GALR2 agonist,INS promoter inh,INS promoter inh cell count,HSV replic up,HSV replic up primary fold
COc1ccc(C=O)cc1CSc1ccccn1,93,nt,nt,nt,nt,i,0.94
CC(=O)Nc1ccc(NC(=O)Cn2nc([N+](=O)[O-])c(Br)c2C)cc1,46,8,nt,50,87,i,0.95
CC(=O)c1c(C(C)=O)c(C)n(C2CCCCC2)c1C,71,2,-4.7,-3,120,i,0.88
C=CCNc1nc(C)nc(OC)n1,100,4,-0.9,nt,nt,i,1
O=C(O)c1cccc(S(=O)(=O)NCCc2ccccc2)c1,98,1,nt,nt,nt,i,0.98
Cc1cc(C)n(/N=C/c2cccs2)c(=O)c1C#N,95,-6,-0.4,nt,nt,i,0.99
CC1C/C(=N\NC(=O)CCc2ccc(S(=O)(=O)N3CCOCC3)cc2)CC(C)(C)C1 (configuration not stated),101,13,-0.4,-62,115,i,0.95
O=C(CSc1nnc2ccccn12)Nc1ccc2c(c1)OCO2,111,-5,nt,-36,150,i,0.98
Cc1csc(=Nc2ccccc2)n1CCO,103,-4,-0.9,nt,nt,i,1.1
COc1ccccc1NC(=O)Cn1c(=O)n2nc(C)nc2c2ccccc21,111,1,-2.1,nt,nt,i,0.88
